# Screening data: PubChem BioAssay, National Center for Advancing Translational Sciences (NCATS)
# VDR inh: blocks the human vitamin D receptor; P11473; VDR-SRC2-3 peptide fluorescence polarization, 2 h; Potency, µM, for the others: max response, negative = inhibition, most hits filed as inhibitors; 400,000 tested, 0.93% active; AID 504847; active = well fitted inhibition curve with a large enough effect; inconclusive = small, poorly fitted or top-dose-only effect, or another doubt; inactive = no such curve, though single readings can be large or run the other way; note: series mostly up to about 120 µM
# Target sequence (P11473 whole entry, looked up): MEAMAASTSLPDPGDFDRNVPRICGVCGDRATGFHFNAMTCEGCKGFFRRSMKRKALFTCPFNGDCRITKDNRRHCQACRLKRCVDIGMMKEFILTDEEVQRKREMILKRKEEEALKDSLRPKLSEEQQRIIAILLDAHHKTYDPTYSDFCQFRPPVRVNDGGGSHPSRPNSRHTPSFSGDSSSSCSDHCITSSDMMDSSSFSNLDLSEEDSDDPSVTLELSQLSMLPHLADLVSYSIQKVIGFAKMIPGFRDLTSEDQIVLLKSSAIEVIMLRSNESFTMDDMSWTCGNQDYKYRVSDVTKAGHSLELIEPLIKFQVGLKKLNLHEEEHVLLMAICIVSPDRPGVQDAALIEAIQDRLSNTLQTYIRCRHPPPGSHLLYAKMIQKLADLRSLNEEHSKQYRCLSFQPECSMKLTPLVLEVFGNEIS
#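 Compounds are added to VDR with labelled SRC2-3 coactivator peptide and held 2 h at room temperature. Inhibition of the VDR–peptide interaction is then read as a change in fluorescence polarization.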
# * marks the source's active call; other numbers are inactive results; ? = inconclusive; & = joins results of further samples; [ ] = remark or other dose. % is set by controls: 0 for no effect and ±100 for the full control effect; potency is the fitted concentration of half-maximal effect. Not all compounds are listed; the hit share may differ from the screen's.
SMILES,VDR inh
COc1ccc(C(=O)CC(Nc2ccc([N+](=O)[O-])cc2)c2ccc(Cl)cc2)cc1 (stereo unspecified),-1%
Cc1cc(N2CCN(C)CC2)nc2ccc(NC(=S)N3CCCCC3)cc12,-1%
CCc1nnc(NC(=O)Cc2ccc(S(=O)(=O)N3CCCCC3)cc2)s1,6%
CCCC(=O)Nc1sc(-c2ccccc2)c(-c2ccccc2)c1C(=O)O,-26%
O=C(CSc1nc2scc(-c3ccccc3)c2c(=O)[nH]1)NCCc1ccccc1,3%
N#Cc1ccccc1CSc1nc2ccsc2c(=O)n1Cc1ccccn1,4%
COc1ccc(OCCCC(=O)OC(C)C(=O)Nc2ccc(C)cc2)cc1 (stereo unspecified),-14%
O=C(COc1ccccc1)Nc1ccc2nc(SCC(=O)N3CCOCC3)sc2c1,10%
COc1ccc(-c2cc(C(=O)NCCN3CCOCC3)c3ccccc3n2)cc1OC,4%
Oc1c(Br)cc(Cl)cc1C=Nc1ccc(N2CCOCC2)cc1,?
COc1ccc(NC(=O)CSc2nc3nc(C)cc(C)c3c(=O)[nH]2)cc1OC,-20%
O=c1cc(COc2ccc(Cl)c(Cl)c2)nc2sccn12,7%
c1ccc(N=P(c2nc3ccccc3o2)(N2CCOCC2)N2CCOCC2)cc1,32%[activator]
CC1CCN(S(=O)(=O)c2ccc(C(=O)N3CCN(c4ccccc4F)CC3)cc2)CC1,-11%
COc1cc(NC(=O)CN2C(=O)c3ccccc3C2=O)c(C(=O)O)cc1OC,-4%

# Continued; it opens with the four that closed the last part.
SMILES,VDR inh
O=c1cc(COc2ccc(Cl)c(Cl)c2)nc2sccn12,7%
c1ccc(N=P(c2nc3ccccc3o2)(N2CCOCC2)N2CCOCC2)cc1,32%[activator]
CC1CCN(S(=O)(=O)c2ccc(C(=O)N3CCN(c4ccccc4F)CC3)cc2)CC1,-11%
COc1cc(NC(=O)CN2C(=O)c3ccccc3C2=O)c(C(=O)O)cc1OC,-4%
Nc1cc2c(cc1[N+](=O)[O-])-c1ccccc1C2=NO,-24%
Cc1ccc(Cn2c(=O)n(Cc3ccccc3)c(=O)c3c(C)c(C)sc32)cc1,12%
CCN(CC)S(=O)(=O)c1ccc(C)c(NC(=O)c2cc(C)oc2C)c1,19%
O=C(c1ccccc1F)N1CCN(Cc2nc3sc4c(c3c(=O)[nH]2)CCCC4)CC1,26%
CCOC(=O)c1c(C)[nH]c(C)c1C(=O)COC(=O)c1c(OC)cccc1OC,15%
Cc1c(NC(=O)c2cc(CC(C)C)on2)c(=O)n(-c2ccccc2)n1C,-6%
C=CCN(C)CCCCCCOc1ccc(C(=O)c2ccc(Br)cc2)c(F)c1,-2%
Cc1cc(Cl)ccc1OCCCC(=O)NCCCn1ccnc1,-8%
Cc1ccc(CN(Cc2ccccn2)C(=O)Nc2c(F)cccc2F)cc1,-7%
Cc1cc(S(=O)(=O)C(CNC(=O)c2ccc(OC(C)C)cc2)c2cccs2)ccc1F (stereo unspecified),8%
CN(C)C(=O)CCc1ccc2c3c([nH]c2c1)[C@]1(CCc2ccccc2)[C@@H](C(=O)N2CCCCC2)C[C@H](CC(=O)NCCC2=CCCCC2)C(=O)N1CC3,5%
CN(C(=O)c1ccc(NC(=O)Cc2cccc(NC(=O)C3CCCN(C(=O)C4CCC4)C3)c2)cc1)C1CCCC1 (stereo unspecified),-7%
COc1ccc(CN2CCN(C(=O)c3ccccc3F)CC2)c(OC)c1OC,4%
O=C(O)c1ccc(CS(=O)c2cccc(C(F)(F)F)c2)o1 (stereo unspecified),-5%
O=C(CCC(=O)c1ccc(Br)cc1)Nc1cccnc1,?

# Overlap with the part before: 2 entries, followed by the next part.
SMILES,VDR inh
O=C(O)c1ccc(CS(=O)c2cccc(C(F)(F)F)c2)o1 (stereo unspecified),-5%
O=C(CCC(=O)c1ccc(Br)cc1)Nc1cccnc1,?
CCCN(CCC)CCNC(=S)Nc1ccc2nc3n(c(=O)c2c1)CCCCC3,-15%
Cc1cc(S(=O)(=O)NCCc2csc(-c3cccc(F)c3)n2)ccc1F,3%
CC(C)C(=O)NCCc1nc2ccccc2n1CCOc1ccccc1,-7%
CC(C)C(NC(=O)OCc1ccccc1)C(=O)O (stereo unspecified),6%
O=c1c2cc(-c3ccccc3)sc2nc2n1N=C(c1cccs1)CS2,-4%
COc1ccccc1/C=C1\NC(=S)N(CC2CCCO2)C1=O (stereo unspecified),3%
COc1ccc(NC(=O)C2CCCN(S(=O)(=O)c3ccc(C)cc3)C2)cc1OC (stereo unspecified),-3%
O=C(O)c1cccc(S(=O)(=O)N(Cc2ccccc2)c2cccc(C(F)(F)F)c2)c1,9%
COc1ccc(CNCc2cccc(OC)c2OC)cc1Br,8%
O=C(CSc1nc(=O)[nH]c2c1CCCC2)Nc1ccc(Cl)c(Cl)c1,12%
COc1ccc(CCNC(=O)CCc2nc3ccccc3[nH]2)cc1OC,4%
CCCCN(CC)CCCNC(=O)c1cc2c(=O)n(CC)c3ccccc3c2s1,-8%
CCOc1ccc(Br)cc1S(=O)(=O)Nc1cccc(S(=O)(=O)N(C)C)c1,-5%
CC(C)(C)NS(=O)(=O)c1ccc(CCC(=O)Nc2ccc3c(c2)OCO3)cc1,-5%
COc1ccccc1NC(=O)CCCc1c[nH]c2ccccc12,-5%

# Arranged by value in VDR inh (descending): 3 of the compounds above
Structure	VDR inh
O=C(CSc1nc(=O)[nH]c2c1CCCC2)Nc1ccc(Cl)c(Cl)c1	12%
COc1ccc(CNCc2cccc(OC)c2OC)cc1Br	8%
CC(C)C(NC(=O)OCc1ccccc1)C(=O)O (stereo unspecified)	6%

# (more compounds)
SMILES,VDR inh
Cc1ccc(C(=O)OCC(=O)NCC2CCCO2)c(C)c1 (stereo unspecified),29%
Cc1cc(C)c(S(=O)(=O)Nc2c(C)n(C)n(-c3ccccc3)c2=O)cc1[N+](=O)[O-],-6%
C=CCn1c(COc2ccc3c(c2)CCCC3)nnc1SCC(=O)Nc1cccc(SC)c1,7%
CCOC(=O)N1CCC(NC(=O)CCc2c(C)nc3c(c(C)nn3C(C)(C)C)c2C)CC1,-1%
O=C(CSc1nnc(-c2ccccc2)o1)NC1CCS(=O)(=O)C1 (stereo unspecified),-3%
Cn1cccc1C(=O)N1CCC2(CCN(Cc3ccc(C#N)cc3)CC2)CC1,?
O=C1NCCc2c1[nH]c1c(Cl)ccc(Cl)c21,4%
CCCn1cc(S(=O)(=O)c2ccc(C)cc2)c(=O)c2cc(OC)c(OC)cc21,-1%&-3%
COc1ccc(-n2cc(CNCC3CC(=O)N(C4CC4)C3)c(-c3ccccc3Cl)n2)cc1 (stereo unspecified),-3%
COc1ccc(Br)cc1CNC(=O)CCC(=O)n1nc(C)c2ccccc21,?
COc1ccc(C)cc1NC(=O)CCNS(=O)(=O)c1ccc2c(c1)CC(C)N2C(C)=O (stereo unspecified),-21%
CN(C)C(CNC(=O)C1CCN(S(=O)(=O)c2ccccc2)CC1)c1ccccc1 (stereo unspecified),-16%
CC1CCCCN1C(=O)Cc1ccc(Cl)cc1 (stereo unspecified),-9%
O=C(C1CCN(S(=O)(=O)c2ccc(Cl)cc2)CC1)N1CCCC1,5%
COc1cccc(OCCNc2cc(Cl)ccc2[N+](=O)[O-])c1,4%

# The closing three compounds of the part before open the next one:
SMILES,VDR inh
CC1CCCCN1C(=O)Cc1ccc(Cl)cc1 (stereo unspecified),-9%
O=C(C1CCN(S(=O)(=O)c2ccc(Cl)cc2)CC1)N1CCCC1,5%
COc1cccc(OCCNc2cc(Cl)ccc2[N+](=O)[O-])c1,4%
Cc1cc(C)cc(NC(=O)c2cc(S(=O)(=O)N3CCCCC3)c[nH]2)c1,-9%
O=C(C(=O)N1CCN(Cc2ccccc2)CC1)c1c[nH]c2ccccc12,-24%
C=CCn1c(SCc2csc(C)n2)nc2sc3c(c2c1=O)CCC(C)C3 (stereo unspecified),18%
COc1ccc(NC(=S)N(C)CC2COc3ccccc3O2)cc1 (stereo unspecified),-3%
Cc1noc(C)c1-c1ccc2ncnc(N3CCN(C)CC3)c2c1,?
CC(C)OC(=O)CN1C(=O)C(=O)c2ccccc21,-1%
CC(=O)c1cccc(NC(=S)N2CCc3ccccc32)c1,21%
CCOc1cc(S(=O)(=O)N2CC=C(c3ccc(F)cc3)CC2)c(OCC)cc1-n1cnnn1,-10%
COc1ccccc1-c1c(C(F)(F)F)oc2cc(OS(C)(=O)=O)ccc2c1=O,-1%
COc1cc(-c2oc3cc(O)cc(O)c3c(=O)c2O[C@@H]2O[C@H](CO)[C@@H](O)[C@H](O)[C@H]2O)cc(OC)c1O,14%
CC(=O)Nc1ccc(S(=O)(=O)N[C@@H](C)C(=O)N2CCN(C/C=C/c3ccccc3)CC2)cc1,-11%
CCOc1cc(Br)c(C2C(C(=O)OC)=C(C)NC3=C2C(=O)c2ccccc23)cc1OCC (stereo unspecified),-5%
COCCN(Cc1cc2cc3c(cc2n2nnnc12)OCO3)C(=O)c1ccccc1F,4%
CC1=C(C(=O)N2CCOCC2)C(c2ccccc2F)C2=C(CCCC2=O)N1 (stereo unspecified),21%
CCCn1cnc2cc(NC(=O)c3cc(OC)c(OC)c(OC)c3)ccc21,-12%
COc1ccc(C(=O)N/N=C/C(C)c2ccccc2)cc1OC (stereo unspecified),5%
CCOC(=O)c1c(C)[nH]c(C)c1S(=O)(=O)N1CCC(C(=O)N2CCN(c3cc(C)ccc3C)CC2)CC1,13%
COC(=O)C1CCN(C(=O)COC(=O)Cc2c[nH]c3ccccc23)CC1,1%
O=c1sc(Nc2ccccc2)nc2ccsc12,-8%
COc1cc(NC(=O)Cn2cnc3c(OCc4ccccc4)ncnc32)cc(OC)c1OC,6%
Cc1oc(-c2cc(F)ccc2F)nc1CN1CCN(c2ncnc3ccccc23)CC1,-20%
Cc1[nH]c(C)c(S(=O)(=O)N(C)Cc2ccccc2)c1C(=O)N1CCCCC1,-1%
CCn1c(COc2ccc3ccccc3c2C)nnc1SCC(=O)Nc1cccc(C(=O)O)c1,-12%
CCCCCCCCS(=O)C1CCS(=O)(=O)C1 (stereo unspecified),-9%
COC(=O)c1cn(NC(=O)C2CCC(C(C)(C)C)CC2)c(=O)c2ccccc12 (stereo unspecified),-6%
Cc1cc(=O)oc2c3c(ccc12)OC/C3=N/N,-14%
Fc1cccc(Cl)c1CSc1nnc(CN2CCOCC2)n1-c1ccccc1,-2%
O=C(Nc1ccccc1)N(Cc1cccs1)C1CCCC1,-17%
CCn1c(SCC(=O)Nc2ccc(C)cc2)nnc1-c1ccccn1,1%
Cc1nc(N2CCCC2)c2c(C(=O)Nc3cccc(Cl)c3C)c(C)oc2n1,-11%
COc1ccc2[nH]c(=O)c(CNc3ccccc3)cc2c1,-4%
CC1(C)CC2(CCCN(C(=S)Nc3ccccc3)C2)CCO1 (stereo unspecified),-3%
C=CCSc1nc(N(CC)CC)c2sccc2n1,9%
COc1cccc(/C=N/n2nnnc2N)c1OCC#N,-11%
c1ccc(Nc2nc(N3CCOCC3)c3ccccc3n2)cc1,13%
COc1ccc(NC(=O)CN2CCOCC2)cc1S(=O)(=O)N1CCCCC1,6%
COc1cnn(-c2cccc(C)c2)c(=O)c1Cl,14%
O=C(N/N=C\c1c(O)ccc2ccccc12)c1ccc(O)cc1,11%
Nc1nc(-c2ccco2)nn1C(=O)c1ccccc1Cl,17%
C/C(=N\NC(=O)COc1ccc(C(C)(C)C)cc1)c1ccc(-n2ccnc2)cc1,-2%
COc1ccc(CC(=O)Nc2cc(S(=O)(=O)N3CCOCC3)ccc2N2CCOCC2)cc1,-16%
CC1CCc2sc3ncnc(N4CCN(C)CC4)c3c2C1 (stereo unspecified),15%
Cc1ccc(S(=O)(=O)N2CCOCC2)cc1C(=O)N1CCN(c2ccc(C(F)(F)F)cn2)CC1,-8%
CCN(CC)c1ccc(NS(=O)(=O)c2cn(C)c(=O)n(C)c2=O)c(C)c1,-11%
C/C=C(\C)CN1CCC(n2nccc2NC(=O)CCc2ccccc2)CC1,-9%
CCOc1ccc(N2CC(NC(=O)C(=O)c3c[nH]c4ccccc34)CC2=O)cc1 (stereo unspecified),5%
CC(C)OP(=O)(OC(C)C)C1(O)C(=O)Nc2ccc(Br)cc21 (stereo unspecified),-10%
COc1ccc(CN(N=O)C2CC(=O)N(c3ccc(OC)cc3)C2=O)cc1 (stereo unspecified),-1%
Cc1ccc(CNC(=O)CC(C)S(=O)(=O)c2ccc3c(c2)NC(=O)CO3)cc1 (stereo unspecified),-15%
COCCNC(=O)c1c(NC(=O)c2cc(=O)c3cc(Cl)ccc3o2)sc2c1CCCC2,-4%
CCOc1ccc(N(CC(=O)NCC2CCCO2)C(=O)CCC(=O)Nc2ccccn2)cc1 (stereo unspecified),-7%
CCC(C)c1ccccc1N1CC(C(=O)Nc2ccc(C)c(S(=O)(=O)N3CCOCC3)c2)CC1=O (stereo unspecified),-8%
C/C(N)=C(/C#N)C(=O)CSc1nnnn1-c1ccc(C)cc1,3%
CC(C)(CNS(=O)(=O)c1ccc2c(c1)OCCO2)N1CCOCC1,2%
O=C(c1cccc(S(=O)(=O)N2CCCC2)c1)N1CCN(c2ccccc2F)CC1,-9%
CC1=C(C)CC(C(=O)Nc2ccc3c(c2)OCO3)C(C(=O)O)C1 (stereo unspecified),21%
CC(=O)Nc1ccc(C(=O)Nc2cc(C(F)(F)F)ccc2-n2cnc3ccccc32)cc1,5%
COc1ccccc1NS(=O)(=O)c1cc(C(=O)NCCN2CCOCC2)ccc1Cl,11%
O=C(CSc1nc2ccccc2s1)NNC(=S)Nc1ccc(Br)cc1,?
Brc1ccc2c(c1)OCCOCCOc1cc(Br)ccc1OCCOCCOCCO2,-19%
COc1ccc(C(=O)c2cccc(C(=O)c3ccc(OC)c(C)c3)c2)cc1C,-1%
CCOC(=O)c1c(C)[nH]c(C(=O)OCC(=O)NC2(C#N)CCCCC2)c1C,-18%
COc1ccc(/C=N/NC(=O)c2ccccc2O)cc1CN1CCOCC1,22%
